RE007 growth inh – less growth of the S. pombe RE007 Vpr strain | AID 651644 | S. pombe RE007 Vpr strain, BacTiter-Glo ATP luminescence, 24 h; control for the full effect not named in the record | Potency, µM (highest dose often 92.2 µM), inactives show top-dose activity change, negative = less growth | actives 0.21% (n = 360,000); active = well fitted falling curve with a large enough effect; inconclusive = small, poorly fitted or top-dose-only effect; inactive = no such curve, though single readings can be large or run the other way;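 also: % is scaled to controls: 0 for no effect and ±100 for the full control effect; nearly all actives have a fitted effect of over 50% in size; the assay follows cell death caused by Vpr and the record does not say whether a fall means rescue or toxicity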
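Fission yeast strain RE007, carrying one chromosomally integrated HIV-1 vpr copy, was seeded at OD 0.01 in PMG+AL medium with 23 nL pinned compound. After 24 h at 30 °C and 99% humidity, viability was read by BacTiter-Glo luminescence.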
StopGo reporter – FMDV 2A StopGo reporter, luciferase signal. actives 1.2% (n = 410,000). Potency, µM (series often up to 57.9 µM), inactives show at the top dose signal change, negative = less light. human cells with a luciferase reporter of 2A StopGo recoding; control for the full effect not named in the record; active = well fitted falling curve with a large enough effect; inconclusive = small, poorly fitted or top-dose-only effect; inactive = no such curve, though single readings can be large or run the other way; tested in HEK293T cells; also: % is scaled to controls: 0 for no effect and ±100 for the full control effect; nearly all actives have a fitted effect of over 45% in size; luciferase light after 4 h
SARS PLP yeast – inhibitors of SARS-CoV papain-like protease in yeast; Potency, µM (titrated, usually from 32.9 µM), for inactives: top-dose activity, positive = growth rescue; AID 485353; actives 0.19% (n = 330,000); S. cerevisiae expressing SARS-CoV PLpro, growth rescue; control for the full effect not named in the record; active means well fitted rising curve with a large enough effect; inconclusive means small, poorly fitted or top-dose-only effect; inactive means no such curve, though single readings can be large or run the other way; also: 0% is about no effect; nearly all actives have a fitted effect of over 55% in size; growth read by luminescence after 48 h
* hit, by the source's call; ? = inconclusive; [ ] = dose if it differs, or a comment. Potency is read from the fitted curve at half-maximal effect. The list is partial (hit frequency here may not be typical).

Each structure is followed by: RE007 growth inh | StopGo reporter | SARS PLP yeast
- COc1ccc(-c2c(-c3ccsc3)oc(=O)c3cc(OC)c(OC)cc23)cn1
→ -8% | -29% | 11%
- COc1ccc(NS(=O)(=O)c2cc(NC(=O)c3cc(F)c(F)cc3Cl)ccc2N2CCOCC2)cc1
→ 0% | 72%[activator] | 2%
- CC[C@]12c3[nH]c4cc(CCC(=O)N(C)C)ccc4c3CCN1C(=O)[C@@H](CC(=O)NCCCn1ccnc1)C[C@@H]2C(=O)N1CCN(C(=O)C2CC2)CC1
→ 4% | -1% | 1%
- Cc1cc(C)cc(NC(=O)COC(=O)c2ccc3c(c2)OCCO3)c1
→ -12% | -20% | -3%
- C[C@@H]1CCCCCCCCC(=O)OCCN1C(=O)OC(C)(C)C
→ -5% | -21% | 2%
- O=S(=O)(c1cccc(F)c1)N1CCN(c2nc(-c3cccnc3)nc3ccccc23)CC1
→ 14% | -20% | -4%
- O=C1CC(c2ccc3ccccc3c2)NN1 (stereo not drawn)
→ 7% | -21% | -3%
- CC(=O)c1ccc(NC(=O)COC(=O)c2c[nH]c3ccccc23)cc1
→ 6% | -7% | 7%
- Cc1cnc(C(=O)NCC(c2ccccc2)c2ccccc2)cn1
→ 7% | -7% | -3%
- Cc1c(Cl)cccc1NC(=O)COC(=O)c1ccc(CN2CCCC2=O)cc1
→ 4% | 13% | 3%
- CCN(CC)C(=O)[C@H]1CC(CC(=O)NCc2ccc(OC)c(OC)c2)C(=O)N2CCc3c([nH]c4ccc(OC)cc34)[C@]12C (stereo partly drawn)
→ 0% | -8% | -8%
- Cc1cccc(N2CCN(C(=O)CSc3ccc4c(c3)OCCO4)CC2)c1C
→ 18% | 0% | -7%
- Cn1c(NC(=O)Cc2cccc3ccccc23)cc(=O)n(C)c1=O
→ 6% | -17% | -1%
- COc1ccc(CNC(=O)COC(=O)CNC(=O)c2sc3ccccc3c2Cl)cc1OC
→ -14% | -24% | 2%
- O=C(C[C@H]1C/C=C\C[C@H](Cc2ccc(F)cc2)C(=O)O[C@@H](c2ccccc2)CNC1=O)NCCO
→ 13% | -14% | 2%
- CCN(CC)C(=O)[C@H]1CC(CC(=O)NCCCOC)C(=O)N2CCc3c([nH]c4ccccc34)[C@]12C (stereo partly drawn)
→ 1% | -5% | 0%
- C[C@@H]1[C@H]2CCCC[C@H]2CN(C(=O)OC(C)(C)C)[C@@H]1c1cn(Cc2ccccc2)c2ccc(F)cc12
→ -10% | ? | 18%
- O=C(Nc1nnc(C2=COCCO2)o1)c1ccc(S(=O)(=O)N2CCOCC2)cc1
→ 11% | -22% | 0%
- CC(=O)Nc1ccc(Nc2cc(C)nc(Nc3ccc(NC(C)=O)cc3)n2)cc1
→ 4% | -14% | -10%
- Cc1cc(C)c(C)c(S(=O)(=O)N2CCC(C(=O)NCCCN3CCCC3=O)CC2)c1C
→ 8% | -13% | -1%

(next part)
Each structure is followed by: RE007 growth inh | StopGo reporter | SARS PLP yeast
- Cc1ccc(NC(=O)COC(=O)Cc2c[nH]c3ccccc23)cc1C
→ -8% | -1% | -4%
- O=C(Cn1nnc(-c2ccc(Cl)cc2)n1)NC1CCS(=O)(=O)C1 (stereo not drawn)
→ -9% | -12% | -15%
- COc1cc(C(=O)NCC(=O)NCC(c2ccco2)N2CCCCC2)cc(OC)c1OC (stereo not drawn)
→ 4% | -12% | 5%
- C=CCn1c(N/N=C/c2ccc(O)cc2)nc2ccccc2c1=O
→ 6% | 37%[activator] | -2%
- CCN(CC(=O)Nc1cc(Cl)ccc1Cl)C(=O)c1ccc(-n2cccn2)cc1
→ -4% | -4% | 1%
- COC(=O)c1sccc1NC(=S)N1CCC(C(N)=O)CC1
→ -7% | -2% | 4%
- COc1ccc(C2=NOC(Cn3nc(-c4ccccc4)cc3C(=O)NCc3cccs3)C2)cc1 (stereo not drawn)
→ -10% | 40%[activator] | -2%
- Nc1ccc2nc(N3CCOCC3)sc2c1
→ -7% | 44%[activator] | -1%
- C[C@H](CO)N1C[C@H](C)[C@@H](CN(C)Cc2ccc(Cl)c(Cl)c2)Oc2c(NC(=O)c3ccncc3)cccc2C1=O
→ 5% | 22% | 2%
- O=C(c1cccc(Br)c1)c1coc2ccc(O)cc12
→ -6% | 51%[activator] | -2%
- CCC(=O)NNc1nc2c(C)cccc2s1
→ 8% | -2% | -3%
- CCN(Cc1nc2cc(Cl)ccc2c(=O)[nH]1)C(=O)c1ccc(C)c(NC(=O)c2ccco2)c1
→ 3% | -12% | 11%
- CN(Cc1ccccc1)C(=O)C1CCCN(Cc2cccc(Cl)c2)C1 (stereo not drawn)
→ ? | ? | -1%
- O=C(COC(=O)CNC(=O)c1ccccc1Cl)NC1CC1
→ -2% | -5% | -1%
- O=C(NN=Cc1ccc(O)cc1)c1ccccc1NS(=O)(=O)c1cccs1
→ 2% | 2% | 13%
- O=C(COC(=O)C12CC3CC(CC(O)(C3)C1)C2)Nc1ccc(Cl)c(S(=O)(=O)N2CCOCC2)c1
→ 18% | ? | 2%
- CCN1CCN(c2ccccc2NC(=O)c2ccc(-n3cccn3)cc2)CC1
→ -1% | -12% | -2%
- COc1ccccc1NC(=O)COC(=O)c1c(C)nn(-c2ccccc2)c1C
→ -6% | 8% | 2%
- CC(C)(C)OC(=O)NCCCCCc1cn([C@@H](CO)C(=O)NCCCCCCCCCCC(=O)N2CCN(C(=O)OC(C)(C)C)CC2)nn1
→ 6% | 7.1µM* | 2%
- CCOC(=O)N1CCN(C(=O)C(NC(=O)c2ccc(C(C)(C)C)cc2)C(C)C)CC1 (stereo not drawn)
→ -5% | -28% | 1%

(continued)
Each structure is followed by: RE007 growth inh | StopGo reporter | SARS PLP yeast
- CCOP(=O)(/C(C#N)=C(\C)O)c1ccccc1 (stereo not drawn)
→ -7% | -14% | 2%
- O=C(NNC(=O)c1ccccc1F)c1ccc(Cl)c(S(=O)(=O)N2CCOCC2)c1
→ 2% | -18% | -8%
- CCN1CCN(c2ccc(NC(=O)c3ccc(OC)c(S(=O)(=O)N4CCCC4)c3)cc2)CC1
→ -11% | -18% | -4%
- CC(=O)c1ccc(-c2ccc(C(=O)Nc3nc(C)c(C(C)=O)s3)o2)cc1
→ 2% | 5% | -6%
- CCc1ccc(OCCNc2cc(N3CCNC(C)C3)ccc2[N+](=O)[O-])cc1 (stereo not drawn)
→ -3% | -8% | 14%
- N#Cc1cccc(S(=O)(=O)NCc2nnc3ccccn23)c1
→ -16% | -6% | 0%
- O=C1CCN(Cc2ccccc2)C=C1c1cccc(O)c1
→ 3% | -12% | 4%
- CCCN(C(=O)c1cc(Cl)nc2ccccc12)c1c(N)n(Cc2ccccc2)c(=O)[nH]c1=O
→ -8% | -10% | 0%
- O=C(C[C@@H]1C/C=C\C[C@H](Cc2ccc(F)cc2)C(=O)OC[C@H]2CCCN2C1=O)N[C@H](CO)Cc1ccccc1
→ 6% | ? | -3%
- C[C@@H]1CN([C@H](C)CO)C(=O)c2cc(NS(=O)(=O)c3cn(C)cn3)ccc2O[C@H]1CN(C)C(=O)Nc1ccccc1
→ -11% | -6% | ?
- CN/N=C/c1ccc(C#N)cc1
→ -16% | -18% | 0%
- COC(=O)C1=C(C(=O)OC)[C@]2([C@H]3CCCCN[C@@H](Cc4ccccc4)C(=O)N3Cc3ccccc3)C=C[C@H]1O2
→ -11% | ? | 0%
- Cc1ccc(S(=O)(=O)CCC(=O)N2CCN(c3ccccc3O)CC2)cc1
→ -1% | -18% | -1%
- Cc1c(C(=O)Nc2nnc(C3CC3)s2)oc2ccccc12
→ -22% | 64%[activator] | 0%
- CC(C)(C)OC(=O)C[C@H]1C/C=C\C[C@@H](CC(=O)N(CCO)Cc2ccccc2)C(=O)N2CCC[C@H]2COC1=O
→ -15% | ? | -1%
- Cc1c(Cl)cnc(NC(=O)COC(=O)C2CC2)c1Cl
→ 8% | 14% | -10%
- O=C1CS(=O)(=O)N(Cc2cccc(F)c2)c2ccc(Br)cc21
→ -5% | -10% | -1%
- COC(=O)[C@H](Cc1ccccc1)NS(=O)(=O)N[C@@H](Cc1ccccc1)C(=O)OC
→ -6% | 19% | -2%
- Cc1ccc2c(c1)[C@H]1[C@H](CO2)[C@H](c2ccccc2)[C@]2(C)C(=O)N(Cc3ccc(Cl)cc3)CC(=O)N12
→ 6% | -23% | 2%
- O=C(NCc1ccc(F)cc1)C1CCCN1S(=O)(=O)c1ccccc1C(F)(F)F (stereo not drawn)
→ -2% | -17% | -1%

The list continues.
Each structure is followed by: RE007 growth inh | StopGo reporter | SARS PLP yeast
- COc1ccccc1-c1cc(C(=O)N2CCCc3ccccc32)no1
→ -16% | 18% | -8%
- CCOC(=O)c1cc(-c2ccccc2C)n(CC2CC(c3cccc([N+](=O)[O-])c3)=NO2)n1 (stereo not drawn)
→ -7% | -23% | 3%
- O=C(CCN1C(=O)/C(=C/c2cccs2)SC1=S)Nc1ccccn1
→ -9% | -20% | 0%
- N#Cc1ccc(Cl)cc1NC(=O)COC(=O)c1cccc(S(=O)(=O)N2CCOCC2)c1
→ 3% | -8% | 0%
- COc1ccc(C(=O)N2CCCC(C(N)=O)C2)cc1S(=O)(=O)N1CCOCC1 (stereo not drawn)
→ -7% | -18% | -3%
- CCC1(c2ccccc2)C(=O)N(C(=O)OC(C)(C)C)N1C(=O)OC(C)(C)C (stereo not drawn)
→ -9% | -12% | 4%
- Cc1cc(S(=O)(=O)NCC(c2ccc3c(c2)OCO3)N2CCOCC2)ccc1F (stereo not drawn)
→ -11% | 6% | -9%
- CSc1nc(N(C)C)nc(N(C)C#N)n1
→ -13% | -4% | 1%
- CCOC(=O)[C@H]1[C@H]2COc3ccccc3[C@@H]2N2C(=O)c3cc(OC)ccc3NC(=O)[C@@]12C
→ 16% | -10% | 2%
- Cc1ccc(C(=O)Nc2ccccc2N2CCOCC2)cc1S(=O)(=O)N1CCOCC1
→ -3% | -15% | -1%
- CCC(=O)c1c(CC)c2n3c1CC[C@H]3CCC2
→ -1% | -8% | 1%
- Cc1ccccc1-n1c(C)nnc1SC(C)C(=O)NCC1CCCO1 (stereo not drawn)
→ -2% | -12% | -5%
- CC(C)(C)NC(=O)C[C@H]1C[C@H](C(=O)N2CCOCC2)[C@@]2(CCC3CCCC3)c3[nH]c4cc(-c5ccco5)ccc4c3CCN2C1=O
→ 7% | -22% | 4%
- Cc1c(NC(=O)C(C)SC(=S)N2CCCC2)c(=O)n(-c2ccccc2)n1C (stereo not drawn)
→ -4% | -14% | 17%
- CSc1ccccc1C(=O)Nc1ccc(S(=O)(=O)NC2=NCCCCC2)cc1
→ 17% | 11% | -20%
- Cc1nc(Nc2ccccc2)sc1C
→ -23% | 53%[activator] | -1%
- Cc1cc(-c2csc(NC(=O)C3=COCCO3)n2)c(C)n1C
→ -15% | -2% | 2%
- Cc1cccc(NC(=O)CCCN=C2NS(=O)(=O)c3ccccc32)c1C
→ 10% | -4% | 0%
- CC(O)c1nc(C(C)O)n(CC(=O)c2ccccc2)n1 (stereo not drawn)
→ -2% | -16% | -3%
- C=CCNCc1ccccc1[N+](=O)[O-]
→ -1% | -13% | -6%

Reprinted at random: 2 compounds from above, in no set order.
Each structure is followed by: RE007 growth inh | StopGo reporter | SARS PLP yeast
- CC(C)(C)NC(=O)C[C@H]1C[C@H](C(=O)N2CCOCC2)[C@@]2(CCC3CCCC3)c3[nH]c4cc(-c5ccco5)ccc4c3CCN2C1=O
→ 7% | -22% | 4%
- C=CCNCc1ccccc1[N+](=O)[O-]
→ -1% | -13% | -6%

Following part.
Each structure is followed by: RE007 growth inh | StopGo reporter | SARS PLP yeast
- O=C(Cn1ccc(NC(=O)OCc2ccccc2)nc1=O)NCCc1c[nH]c2ccccc12
→ 5% | -26% | -1%
- Cc1ccc(C)c(NC(=O)COC(=O)c2ccc3c(c2)OCCO3)c1
→ -12% | -3% | 13%
- CSc1ccccc1NC(=O)COc1ccc2c(c1)OCO2
→ -20% | 28% | -5%
- CCOC(=O)C1=CN2CCCC[C@@H]2CC1=O
→ -4% | 2% | 0%
- O=C(NCc1ccc(F)cc1)c1cc(S(=O)(=O)N2CCCCC2)ccc1N1CCOCC1
→ -4% | -12% | -4%
- O=C(NCc1cccc2ccccc12)Nc1ccccc1
→ -7% | 27% | -1%
- COc1ccc(-c2noc(CCC(=O)N3CCN(c4ccc(Cl)cc4)CC3)n2)cc1
→ -7% | -27% | -1%
- Cc1ccc(CNC(=O)c2ccc(N3CCC4(CC3)CC(c3cccc(Br)c3)=NO4)c(NC(=O)c3ccccc3)c2)cc1
→ -1% | -12% | 1%
- COCc1c(C(=O)OCc2nc3ccsc3c(=O)[nH]2)oc2ccccc12
→ 0% | -8% | 1%
- C#CCOCCOCCOCCNc1nc(N2CCOCC2)nc(N2CCN(C(=O)CCCCCCCCCCNC(=O)[C@H](CO)n3cc(CCCCCN)nn3)CC2)n1
→ -23% | -18% | -26%
- CCOC(=O)c1c(C)[nH]c(C)c1C(=O)COC(=O)c1ccc(S(=O)(=O)C(F)F)cc1
→ 0% | -11% | 9%

Screening results deposited in PubChem by National Center for Advancing Translational Sciences (NCATS).
